Sa growth 42C: S. aureus growth inhibition; relative growth, % (concentration not given with the values); AID 720641; S. aureus RN4220 growth, OD600, 20 h, 42 °C; stronger effect = lower value; 0.53% of 170,000 active;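 active = growth at 42 °C up to 50% and 20 or more points under that at 30 °C, or under 10% at both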;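 note: 300 nL library stock went into each well; scaled to the means of positive and negative controls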
HCMV UL50-53 inh: inhibitors of HCMV UL50-UL53 nuclear egress complex interaction; inhibition, % (concentration not given with the values); AID 1918969; HTRF UL50-UL53 interaction, normalized percent inhibition; 0.15% of 190,000 active;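 active = both replicates at 50% or more, plus weaker picks with an unusually low signal ratio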;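 note: stock transfer was 100 nL into about 20 µL; 0% = negative control wells and 100% = wells with untagged competitor protein; inactives centre near -12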
GIV Gai3 FP: GIV-Galpha-i interaction inhibition | Galpha-i3/FITC-GIV peptide fluorescence polarization, 90 min; stronger effect = lower value; scaled: aluminum fluoride 0%, vehicle 100% | AID 1224905 | percent of control (FP), % (test concentration not listed) | P08753 | 0.42% of 210,000 active;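 active = replicate mean at 85% of control or lower, very high polarization wells dropped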;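 note: wells of about 15 µL received 100 nL stock; the first replicate is given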
Target sequence (P08753 whole entry, looked up): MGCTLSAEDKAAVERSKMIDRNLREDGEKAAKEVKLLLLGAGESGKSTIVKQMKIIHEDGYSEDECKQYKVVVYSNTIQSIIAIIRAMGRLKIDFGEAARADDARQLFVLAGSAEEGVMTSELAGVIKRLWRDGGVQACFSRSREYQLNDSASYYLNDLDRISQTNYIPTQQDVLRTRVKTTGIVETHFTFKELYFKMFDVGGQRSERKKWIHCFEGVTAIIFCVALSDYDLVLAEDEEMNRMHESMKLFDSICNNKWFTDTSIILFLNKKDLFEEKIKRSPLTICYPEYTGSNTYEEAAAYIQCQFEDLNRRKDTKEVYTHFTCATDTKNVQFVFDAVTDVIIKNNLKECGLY
Sa growth 42C second temp: further read-out of Sa growth 42C, marked with its call; relative growth, %; measured here: growth at 30 °C;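 optical density after 20 h as mean of two plates; 100% = untreated growth and lower means inhibition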
Numbers without * were called inactive; · = not tested or not shown.

Labels used below – A = Sa growth 42C; B = Sa growth 42C second temp; C = HCMV UL50-53 inh; D = GIV Gai3 FP
[1] CCc1cc(C(=O)Cc2nc3ccccc3[nH]2)c(O)cc1O
  A: 99	B: 98	C: -15	D: ·
[2] CCN(CC)S(=O)(=O)c1ccc2c(c1)CC(C(=O)N1CCN(Cc3ccccc3)CC1)N2C(C)=O (configuration not stated)
  A: ·	B: ·	C: -2	D: 100
[3] C=CCSc1nnc(Cn2nnc3ccccc32)n1-c1ccc(Cl)cc1
  A: 100	B: 77	C: 35	D: 102
[4] Clc1cccc(Cc2nn[nH]n2)c1
  A: 101	B: 92	C: -3	D: 100
[5] O=c1[nH]c(NC2CCN(S(=O)(=O)c3ccc(C(F)(F)F)cc3)CC2)nc2c1CCCC2
  A: 108	B: 84	C: 0	D: 103
[6] O=C(Nc1cc(-c2cccc(Cl)c2)no1)c1cc(-c2cccnc2)nc2ccccc12
  A: ·	B: ·	C: -28	D: 108
[7] Cn1cnnc1SCc1ccc(C(=O)n2ncc(C#N)c2N)cc1
  A: 90	B: 95	C: -6	D: ·
[8] COc1ccc(OC)c(S(=O)(=O)NC(C)(C)C)c1
  A: 104	B: 86	C: -8	D: 103
[9] CCCc1ccc(-c2nc(NC(=O)CSCC(=O)Nc3cc(C)on3)sc2C)cc1
  A: 94	B: 80	C: -27	D: ·
[10] Cc1oc(-c2ccc(C(=O)NCc3ccccc3F)cc2)nc1COc1ccccc1
  A: 116	B: 101	C: ·	D: 101
[11] CC(C)Sc1ccc2nnc(-c3cccc(F)c3)n2n1
  A: 95	B: 80	C: -5	D: 105
[12] O=c1[nH]cnc2c1nnn2Cc1ccccc1Cl
  A: 87	B: 93	C: -7	D: 99
[13] Ic1cccc(CSc2nnnn2-c2ccc3c(c2)OCO3)c1
  A: 115	B: 123	C: -6	D: 101
[14] CCSC1=N/C(=C\c2ccc(C)s2)C(=O)S1
  A: 108	B: 79	C: ·	D: 107
[15] CC(C)Oc1cccc(C(=O)Nc2ccc3oc(-c4cccc(Cl)c4)nc3c2)c1
  A: 93	B: 88	C: -32	D: 106
[16] c1ccc(C2C3=C(CCCC3)Nc3nnnn32)cc1 (configuration not stated)
  A: ·	B: ·	C: -29	D: 98
[17] CC(Oc1ccc(Cl)cc1)c1ccnc2c(C#N)cnn12 (configuration not stated)
  A: ·	B: ·	C: -1	D: 103
[18] Cc1ccc(S(=O)(=O)N(CCC#N)CCN2CCCC2)cc1
  A: 107	B: 88	C: -9	D: 100
[19] O=C(Nc1nnc(CCS(=O)(=O)c2ccc(Cl)cc2)s1)c1ccc(Cl)cc1
  A: ·	B: ·	C: 1	D: 102
[20] COc1cccc(C(=O)N2CCN(C(=O)c3ccccc3)CC2)c1
  A: 97	B: 93	C: -10	D: 97
[21] CC(C)NC(=O)c1cccc2cccc(Sc3ccccc3)c12
  A: 109	B: 88	C: -22	D: 105
[22] Cc1ccc(NC(=O)NCCn2c(-c3ccc(F)cc3)nc3cccnc32)cc1Cl
  A: ·	B: ·	C: -20	D: 110
[23] O=C(CN1CCOCC1)Nc1c(-c2ccccc2)c2cc(Br)ccc2[nH]c1=O
  A: 107	B: 74	C: 17	D: 100
[24] CCCCN(C)C(=O)c1cc2cc3ccc(OC)cc3nc2o1
  A: 105	B: 64	C: ·	D: 100
[25] CCOc1ccc(S(=O)(=O)Nc2ccc3c(c2)N(C(C)=O)CCC3)cc1
  A: 90	B: 92	C: ·	D: 103
[26] CNC(=O)C(C)n1nc(C)c2c(C)n(-c3ccccc3)nc2c1=O (configuration not stated)
  A: 102	B: 94	C: -26	D: 99
[27] COc1cc(C(=O)Nc2ccc(NC(=O)c3ccc(Br)cc3)cc2)cc(OC)c1OC
  A: 101	B: 94	C: -19	D: 99
[28] O=C(NC(c1ccccc1)c1ccccc1)C1CC1
  A: 113	B: 89	C: -5	D: 101
[29] CC1CCCN(C(=O)Cn2c(=O)c3ccccc3n3c(=S)sc(-c4ccccc4)c23)C1 (configuration not stated)
  A: ·	B: ·	C: -38	D: 118
[30] CC(=NCCSCc1nc[nH]c1C)c1c(C)[nH]n(-c2nc3ccccc3s2)c1=O
  A: 104	B: 88	C: -34	D: 106
[31] COCCn1c(-c2ccc(C(C)(C)C)cc2)n[nH]c1=S
  A: 102	B: 86	C: ·	D: 95
[32] Cn1ncc2nc(SCC(=O)Nc3ccc(Br)cc3F)n(Cc3ccccc3)c(=O)c21
  A: 103	B: 90	C: -3	D: 100
[33] Cc1nc2ccn(Cc3ccco3)c(=O)c2cc1C(=O)NCc1ccc(Cl)cc1
  A: 73	B: 70	C: ·	D: 98
[34] CC(C)CNc1ncnc2c1sc1nc(C(C)C)c3c(c12)CC(C)(C)OC3
  A: 114	B: 93	C: ·	D: 107
[35] CCCN(CCC)S(=O)(=O)c1c[nH]c(C(=O)OC)c1
  A: 81	B: 81	C: ·	D: 101
[36] CC(=O)Nc1nc(SCc2ccccn2)[nH]c(=O)c1NC(=O)c1ccccc1
  A: 98	B: 83	C: -28	D: 105
[37] CCOc1ccc(NC(=O)CSc2nnc(C(=O)Nc3cccc(Cl)c3)s2)cc1
  A: ·	B: ·	C: -4	D: 98
[38] CC(=O)NCCn1c(SCC(=O)NCc2ccccc2)nc2ccccc2c1=O
  A: 110	B: 83	C: ·	D: 101
[39] OCCNCCNCc1ccc(-c2cccc(Cl)c2)o1
  A: ·	B: ·	C: -11	D: 105
[40] CN1C(=O)/C(=C\c2c(Cl)nc3sccn23)N(C)C1=S
  A: 96	B: 66	C: -46	D: ·

Shown as a markdown table: 2 of the compounds above
| no. | Molecule | Sa growth 42C | Sa growth 42C second temp | HCMV UL50-53 inh | GIV Gai3 FP |
| --- | --- | --- | --- | --- | --- |
| 26 | CNC(=O)C(C)n1nc(C)c2c(C)n(-c3ccccc3)nc2c1=O (configuration not stated) | 102 | 94 | -26 | 99 |
| 27 | COc1cc(C(=O)Nc2ccc(NC(=O)c3ccc(Br)cc3)cc2)cc(OC)c1OC | 101 | 94 | -19 | 99 |

Later entries
Labels used below – A = Sa growth 42C; B = Sa growth 42C second temp; C = HCMV UL50-53 inh; D = GIV Gai3 FP
[41] O=C(Cn1ncc2ccccc21)Nc1ccc(Br)cc1F
  A: 87	B: 83	C: -16	D: 98
[42] Cc1cc(Nc2ccccc2)nn1C(=O)c1ccccc1
  A: 119	B: 83	C: -20	D: ·
[43] CN(CC(=O)Nc1nnc(C2CC2)s1)S(=O)(=O)c1ccc(Cl)cc1
  A: 89	B: 93	C: 16	D: ·
[44] CN(C(=O)c1cccc(N2C(=O)CCS2(=O)=O)c1)C1CCS(=O)(=O)C1 (configuration not stated)
  A: ·	B: ·	C: -20	D: 103
[45] COc1ccc(C2=C(N3CCN(c4ccccn4)CC3)c3ccccc3C2=O)cc1
  A: 107	B: 89	C: -60	D: 108
[46] Cc1ccc(-c2c3c(=O)n(C)c(=O)n(C)c3c3n2-c2ccccc2NC3c2ccc(C)cc2O)cc1 (configuration not stated)
  A: 115	B: 48	C: 11	D: 106
[47] S=c1[nH]cc(-c2ccccc2)n1-c1ccccc1
  A: 70	B: 86	C: -25	D: ·
[48] Cc1c(Cl)cccc1NC(=O)CN1C(=O)COc2ccc(S(=O)(=O)Nc3ccccc3)cc21
  A: 131	B: 94	C: ·	D: 109
[49] C=C(C)Oc1ccccc1OCC(=O)C(C)(C)C
  A: 103	B: 90	C: -24	D: ·
[50] COc1ccc(C2CC(=O)C3=C(C2)NC(C)=C(C(=O)OC(C)C)C3c2ccccc2Cl)cc1OC (configuration not stated)
  A: ·	B: ·	C: -2	D: 102
[51] Cc1ccc2c(c1)N(C(=O)CSc1nc3ccccc3o1)C(C)(C)c1ssc(=S)c1-2
  A: ·	B: ·	C: -15	D: 101
[52] O=C(N/N=C/c1ccccc1)c1cccc(S(=O)(=O)N2CCCC2)c1
  A: 88	B: 96	C: -30	D: ·
[53] CNC(=O)N1CCc2cc(S(=O)(=O)NC3CCCCC3)ccc21
  A: ·	B: ·	C: -15	D: 104
[54] O=C(/C=N/O)Nc1ccccc1F
  A: 89	B: 83	C: -4	D: 99
[55] CCn1c(=O)c(N2CCC(C(=O)NCCc3c[nH]c4ccc(C)cc34)CC2)nc2ccccc21
  A: ·	B: ·	C: -33	D: 106
[56] CN(C(=O)c1ccc(NC(=O)c2ccco2)cc1)C1CCCCC1
  A: 112	B: 79	C: 3	D: 100

Entries of single compounds, quoted from the list. Screens in order: Sa growth 42C | Sa growth 42C second temp | HCMV UL50-53 inh | GIV Gai3 FP
Shown for Cc1ccc2c(c1)N(C(=O)CSc1nc3ccccc3o1)C(C)(C)c1ssc(=S)c1-2 = · | · | -15 | 101
Shown for O=C(N/N=C/c1ccccc1)c1cccc(S(=O)(=O)N2CCCC2)c1 = 88 | 96 | -30 | ·

6 compounds out of the list, arranged by molar mass, descending.
Labels used below – A = Sa growth 42C; B = Sa growth 42C second temp; C = HCMV UL50-53 inh; D = GIV Gai3 FP
[50] COc1ccc(C2CC(=O)C3=C(C2)NC(C)=C(C(=O)OC(C)C)C3c2ccccc2Cl)cc1OC (configuration not stated)
  A: ·	B: ·	C: -2	D: 102
[48] Cc1c(Cl)cccc1NC(=O)CN1C(=O)COc2ccc(S(=O)(=O)Nc3ccccc3)cc21
  A: 131	B: 94	C: ·	D: 109
[55] CCn1c(=O)c(N2CCC(C(=O)NCCc3c[nH]c4ccc(C)cc34)CC2)nc2ccccc21
  A: ·	B: ·	C: -33	D: 106
[52] O=C(N/N=C/c1ccccc1)c1cccc(S(=O)(=O)N2CCCC2)c1
  A: 88	B: 96	C: -30	D: ·
[53] CNC(=O)N1CCc2cc(S(=O)(=O)NC3CCCCC3)ccc21
  A: ·	B: ·	C: -15	D: 104
[54] O=C(/C=N/O)Nc1ccccc1F
  A: 89	B: 83	C: -4	D: 99
